Screening data: PubChem BioAssay, Southern Research Specialized Biocontainment Screening Center
Mtb betalactam – beta-lactam sensitization of Mtb H37Rv, H37Rv; AID 434955, 2010; inhibition, % at 25 µM; M. tuberculosis H37Rv growth with meropenem, percent inhibition; hits of this screen are not shown here; hit rate 0.27% among 330,000;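 active means about 74% or more and at least 40 points above the plate without the antibiotic, then above 30% in a dose series; inconclusive means first-round hits that could not be retested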;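 further: growth measured after seven days incubation then overnight dye step; 0% = bacteria only wells and 100% = bacteria with antibiotic; twin plates without the antibiotic show which effects depend on it; some results filed as inactive read as strong as hits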
Numbers without * were called inactive; ? = inconclusive. Some of the compounds tested. The share of hits here may be higher or lower than overall.

smiles	Mtb betalactam
O=C1/C(=C\c2c(NCCOCCO)nc3ccccn3c2=O)SC(=S)N1Cc1ccco1	1
O=C(COC(=O)COc1ccc(Cl)cc1Br)NC1CC1	3
C/C(=N/NC(=O)c1ccc(Br)o1)c1cccc(NC(=O)c2ccc(F)cc2)c1	?
C[C@H]1COC(=O)[C@H](CC(=O)OC(C)(C)C)C/C=C\C[C@H](CC(=O)N(CCO)Cc2ccccc2)C(=O)N1	-2
C[C@H](CO)N1C[C@H](C)[C@@H](CN(C)Cc2ccc(-c3ccccc3)cc2)Oc2c(NC(=O)Nc3ccc4c(c3)OCO4)cccc2C1=O	4
COc1ccccc1CNC(=O)c1ccc(NC(=O)CC2SC(N3CCCC3)=NC2=O)cc1 (stereo not drawn)	-2
CCCNC(=O)C(Cc1ccccc1)NC(=O)c1ccc(-c2ccccc2)cc1 (stereo not drawn)	9
CCCCC(=O)OCc1c(-c2ccccc2)ncc2ccccc12	11
O=C(COC(=O)C1CCN(S(=O)(=O)c2c(Cl)cccc2Cl)CC1)NCc1ccco1	1
C[C@@H]1CN([C@@H](C)CO)C(=O)c2cc(NC(=O)Nc3ccc4c(c3)OCO4)ccc2O[C@H]1CN(C)S(=O)(=O)c1cn(C)cn1	-3
CSCCC1NC(=O)N(CC(=O)Nc2ccc(Cl)c(S(=O)(=O)N3CCOCC3)c2)C1=O (stereo not drawn)	-8
CC1(C)CC(=O)C=C(c2ccc(-c3ccccc3)cc2)C1	8
COc1ccc2c(c1OC)C(=O)O[C@H]2[C@@H]1c2cc3c(cc2CCN1C)OCO3	-6
CCOc1ccc(NC(=O)CC(NC(C)=O)c2ccccc2)cc1S(=O)(=O)N1CCCC1 (stereo not drawn)	-6
Cc1ccccc1C(=O)OCC(=O)N(C)c1c(N)n(Cc2ccccc2)c(=O)[nH]c1=O	4
COc1cccc(N2CCN(C(=O)c3ccccc3SCC(=O)NCc3ccco3)CC2)c1	5
Cn1cccc1C(=O)OCC(=O)N1CCN(c2ccccc2)CC1	74
CCOc1ncccc1C(=O)Nc1ccc(S(=O)(=O)Nc2nc(C)cc(C)n2)cc1	-2
COc1ccc(C2=CCC3CCCCN3C2)cc1OC (stereo not drawn)	2
CCc1nnc(NC(=O)COC(=O)c2cc(OC)cc(OC)c2)s1	4
CN(CC(=O)Nc1ccc(Cl)c(Cl)c1)C(=O)c1cccc2cccnc12	-2
O=C(c1nc[nH]c1C(=O)N1CCc2ccccc2C1)N1CCc2ccccc2C1	3
Cc1noc(C)c1COC(=O)c1cc(S(=O)(=O)N2CCOCC2)ccc1Cl	-6
O=C(O)C1CCCC[C@H]1C(=O)Nc1ncc([N+](=O)[O-])s1 (stereo partly drawn)	-2
C[C@]12C[C@@H](O)[C@H](O)CC1=CCC1C2CC[C@@]2(C)C1CC[C@@H]2O (stereo partly drawn)	-3
Cc1ccc(S(=O)(=O)N2CCCC2)cc1C(=O)NCCOc1ccccc1	-4
CN(C(=O)CN1C(=O)NC(C)(c2cccc(Br)c2)C1=O)C1CCCCC1 (stereo not drawn)	-1
COc1ccc2c(c1O)-c1c(OC)c(OC)cc3c1[C@H](C2)N(C)CC3	-1
NC(=O)C1CCN(c2oc(-c3ccc(F)cc3)nc2S(=O)(=O)c2ccccc2)CC1	-1
O=C(O)c1ccccc1NS(=O)(=O)c1ccc(NN=Cc2cccc(Cl)c2)c([N+](=O)[O-])c1	2
COc1ccc(S(=O)(=O)N2CCN(C(=O)c3c(C)nn(-c4ccccc4)c3C)CC2)cc1	-3
Cc1cc(OCCCC(=O)NCCc2nnc3ccccn23)ccc1Cl	-3
O=S(=O)(Nc1cccc2ncccc12)c1cccc(C(F)(F)F)c1	4
C#CCOCCOCCOCCNc1nc(N2CCN(C(=O)Cn3cc(CCCCN)nn3)CC2)nc(N2CCN(C(=O)Cn3cc(CCCN=C(N)N)nn3)CC2)n1	-6
COc1ccc(NC(=O)COC(=O)c2cccc(S(=O)(=O)N3CCCCC3)c2)c(OC)c1	-5
C[C@H](CO)N1C[C@H](C)[C@@H](CN(C)CC2CCCCC2)Oc2c(NS(=O)(=O)c3ccc(F)cc3)cccc2C1=O	7

The closing 5 entries of the section before come first, to join the parts:
smiles	Mtb betalactam
Cc1cc(OCCCC(=O)NCCc2nnc3ccccn23)ccc1Cl	-3
O=S(=O)(Nc1cccc2ncccc12)c1cccc(C(F)(F)F)c1	4
C#CCOCCOCCOCCNc1nc(N2CCN(C(=O)Cn3cc(CCCCN)nn3)CC2)nc(N2CCN(C(=O)Cn3cc(CCCN=C(N)N)nn3)CC2)n1	-6
COc1ccc(NC(=O)COC(=O)c2cccc(S(=O)(=O)N3CCCCC3)c2)c(OC)c1	-5
C[C@H](CO)N1C[C@H](C)[C@@H](CN(C)CC2CCCCC2)Oc2c(NS(=O)(=O)c3ccc(F)cc3)cccc2C1=O	7
O=C1C(=O)N(CCCn2ccnc2)C(c2ccc([N+](=O)[O-])cc2)/C1=C(\O)c1ccc2c(c1)OCCO2 (stereo not drawn)	-4
O=C(NCC(=O)N1CCN(Cc2ccccc2)CC1)c1cccs1	1
Cc1nc(Cc2nnc(SCC(=O)N3CC(=O)Nc4ccccc43)o2)cs1	-2
COc1ccc(-c2nc(NC(=O)C3CC(=O)N(Cc4ccco4)C3)sc2C)cc1 (stereo not drawn)	8
CN(Cc1cccs1)C(=O)CN1C(=O)c2ccccc2S1(=O)=O	-6
Oc1ccc(Br)cc1CNc1nccs1	4
Cc1[nH]c2ccccc2c1C(=O)CN1C(=O)C(=O)N(CCC2=CCCCC2)C1=O	-2
COc1cc(CCCN2CCNC[C@H]2Cc2cccc3ccccc23)cc(OC)c1OC	-5
CN(Cc1ccccc1)C(=O)c1[nH]cnc1C(=O)NCc1ccc(CNC(=O)OC(C)(C)C)cc1	2
CC1CCCC(C)N1C(=O)COC(=O)CNC(=O)c1ccccc1 (stereo not drawn)	-6
O=C(O)c1cc(S(=O)(=O)N2CCCCC2)ccc1N1CCCC1	-6
Cc1nnc(SCC(=O)N(C2CCCCC2)C2CCS(=O)(=O)C2)n1C (stereo not drawn)	-3
CSCCC(NC(=O)c1ccco1)C(=O)NCCc1ccc(Cl)cc1 (stereo not drawn)	0
CCOC(=O)c1cc(-c2ccccc2C)nn1CC1CC(c2cccnc2)=NO1 (stereo not drawn)	3
COc1ccccc1CN(C)C(=O)CN1CCN(C(=O)c2cccs2)CC1	-8
COc1ccc(NC(=O)c2ccc(OC)c(S(=O)(=O)N3CCCCC3C)c2)cn1 (stereo not drawn)	-2
Nc1cc(Cl)ccc1C(=O)OCC(=O)NC1CCCCCCC1	-6
N#Cc1ccc(OCCN2CCc3ccccc3C2)cc1	-6
Cn1c(C=O)c(-c2ccc3c(c2)OCCO3)c2ccccc21	21
CCCC(C)C(=O)Nc1cc(S(=O)(=O)N2CCCCC2)ccc1N1CCOCC1 (stereo not drawn)	-4
O=C(Cn1ncc(Cl)c(Cl)c1=O)Nc1ccc2c(c1)OCO2	98
Cc1ccc(S(=O)(=O)N2CCN(C(=O)CSC(=S)N3CCCC3)CC2)c(C)c1	-4
CCN(C(=O)COC(=O)Cc1c(F)cccc1Cl)c1c(N)n(Cc2ccccc2)c(=O)[nH]c1=O	-12
COc1ccc(NC(=O)CON=CC(=O)Nc2ccc(C)cc2)c(OC)c1	2
CC1Cc2ccccc2N1C(=O)COC(=O)c1cccc(Br)c1 (stereo not drawn)	5
CC(C)NC(=O)Nc1ccc2c(c1)C(=O)N([C@H](C)CO)C[C@H](C)[C@@H](CN(C)S(=O)(=O)c1cn(C)cn1)O2	-3
Cc1c(CCOC(=O)c2ccc(Cl)cc2Cl)sc[n+]1CC(=O)c1ccc(Br)cc1	35
CCCc1cc(=O)[nH]c(SCC(=O)Nc2ccc(S(=O)(=O)N3CCCC3)cc2)n1	-13
NC(=O)C1CCN(C(=O)c2ccc(NS(=O)(=O)c3ccc(F)cc3)cc2)CC1	0
COc1cccc(CN(C)C(=O)CSc2nc3ccccc3[nH]2)c1OC	-6
O=C(NCC(c1ccco1)N1CCCC1)c1sc2cc(F)ccc2c1Cl (stereo not drawn)	4
CC1CCC(NC(=O)COC(=O)C2=NN(c3ccccc3)C(=O)CC2)CC1 (stereo not drawn)	-5
CCc1ccc(Nc2nnc(SCC(=O)N(C)C3CCS(=O)(=O)C3)s2)cc1 (stereo not drawn)	-13
Brc1cccc(Nc2nc(-c3cccnc3)cs2)c1	4
O=C(Cc1cccc([N+](=O)[O-])c1)Nc1cccc(C(=O)N2CCCC2)c1	5
Cc1noc(C)c1NC(=O)N(C)C[C@H]1Oc2ccc(NC(=O)Nc3ccccc3)cc2C(=O)N([C@H](C)CO)C[C@@H]1C	3
COc1ccccc1NC(=O)C1CCN(S(C)(=O)=O)CC1	0
COc1cccc(C(=O)N2C[C@H]3C[C@@H](C2)c2cccc(=O)n2C3)c1	-5
O=C(CN1C(=O)NC2(CCOc3ccccc32)C1=O)NCc1ccccc1 (stereo not drawn)	3
CC1CCCN(C(=O)COC(=O)Cn2cnc3ccccc32)C1 (stereo not drawn)	-5
O=C(COC(=O)c1cc([N+](=O)[O-])ccc1N1CCOCC1)c1ccc(F)cc1	-5
Cc1cc(OCC(=O)NC(Cc2ccc(Cl)cc2)C(=O)O)c2c3c(c(=O)oc2c1)CCCC3 (stereo not drawn)	-7
O=C(COC(=O)c1cc(=O)[nH]c2ccccc12)Nc1ccc(F)cc1F	-4
COC(=O)Cc1csc(NC(=O)CSc2nncn2C)n1	2
CCCCCCSc1ccc([C@@H]2[C@@H]3C(=O)N(CC)C(=O)[C@@H]3[C@]3(C(=O)OC)CCCCN23)cc1	3
CC1CN(C(=O)CSc2nnc(C3CCCCC3)n2N)CC(C)O1 (stereo not drawn)	2
Cc1ccc(-c2csc(N3CCC(C(N)=O)CC3)n2)cc1	1
O=C(CNC(=O)c1ccco1)NCc1ccc2c(c1)OCO2	-8
Cc1cccc(N2C(=NC(=O)c3ccccc3)SC3CS(=O)(=O)CC32)c1 (stereo not drawn)	?
O=C1c2ccc(Cl)cc2S(=O)(=O)c2cccc(C(=O)N3CCC(Cc4ccccc4)CC3)c21	64
CC(C(=O)N1CCc2ccccc21)n1cnc2c1c(=O)n(C)c(=O)n2C (stereo not drawn)	-3
COc1cc(/C=C/C(=O)OCC(=O)N2CCCC2)ccc1OCC#N	6
CC(Sc1nc(N)cc(N)n1)C(=O)Nc1ccc(N2CCOCC2)cc1 (stereo not drawn)	-13
Cc1ccnc2nc(C(=O)OCC(=O)N(Cc3ccccc3)C(C)(C)C)nn12	-4
COCCN(CCOC)C(=O)c1ccc(NS(=O)(=O)c2ccc3c(c2)OCCO3)cc1	-8
Cn1c(C=O)c(C#CC(C)(C)O)c2ccccc21	17
O=C(COc1cccc(C(F)(F)F)c1)NNC(=O)c1ccc(=O)[nH]c1	-10
CCN(C[C@H]1N[C@@](CC)(C(=O)OC)[C@H]2C(=O)N(C)C(=O)[C@@H]12)C(=O)c1ccccc1	0
C=CCN(c1ccccc1)S(=O)(=O)c1cccc(C(=O)NCc2ccco2)c1	-6
CC1CCCC(C)N1C(=O)COC(=O)c1cccs1 (stereo not drawn)	1

Arranged by heavy-atom count (highest first): three of the compounds above.
smiles	Mtb betalactam
CCN(C[C@H]1N[C@@](CC)(C(=O)OC)[C@H]2C(=O)N(C)C(=O)[C@@H]12)C(=O)c1ccccc1	0
C=CCN(c1ccccc1)S(=O)(=O)c1cccc(C(=O)NCc2ccco2)c1	-6
COc1cc(/C=C/C(=O)OCC(=O)N2CCCC2)ccc1OCC#N	6

More entries:
smiles	Mtb betalactam
CC(C)c1ccccc1	-1
Cc1ccc(S(=O)(=O)Nc2cccc3c2O[C@@H](CN(C)C(=O)Nc2ccc4c(c2)OCO4)[C@H](C)CN([C@@H](C)CO)C3=O)cc1	6
O=C(NNC(=O)c1ccc(Cl)nc1)c1ccncc1	-5
COc1ccc(N(CC(=O)NC2CCS(=O)(=O)C2)S(=O)(=O)c2cc(C)ccc2C)cc1 (stereo not drawn)	2
NC(=O)C1CCN(C(=O)CNC(=O)c2ccc(F)cc2)CC1	-3
CCCN(CC(=O)Nc1cc(Cl)ccc1Cl)C(=O)/C=C/c1cc(OC)ccc1OC	12
Cn1c(N)c(C(=O)COC(=O)Cc2ccccc2F)c(=O)n(C)c1=O	-3
CCn1c(SCC(=O)NC2CC2)nnc1-c1cccs1	-7
Cc1nn(Cc2ccc(C(=O)N3CCN(C(=O)c4ccco4)CC3)o2)c(C)c1[N+](=O)[O-]	?
CC(C)(C)C(=O)Nc1ccc(C(=O)CSc2nnc(C3CC3)n2C2CC2)cc1	-2
O=C(/C=C/c1ccc(F)cc1)OCC(=O)c1ccc[nH]1	-5
O=C1CCCN2N=C(SCC(=O)N3CCCCC3)SC2=N1	-5
CC(C(=O)N1CCCC1)N1CCN(S(=O)(=O)c2ccccc2)CC1 (stereo not drawn)	-1
CCCCn1c(=O)c(C(=O)Nc2ncccc2C)c(O)c2ccccc21	100
CSc1ncccc1C(=O)OCC(=O)Nc1ccc(C)c(S(=O)(=O)N2CCOCC2)c1	-3
CCCNC(=O)C(Cc1cccc(Cl)c1)NC(=O)c1ccc(C#N)cc1 (stereo not drawn)	0
CC(C)NC(=O)N(C)C[C@H]1Oc2c(NC(=O)Nc3ccc(C(F)(F)F)cc3)cccc2C(=O)N([C@H](C)CO)C[C@@H]1C	5
Cc1c(OCC(=O)N2CCC(C(=O)O)CC2)ccc2c3c(c(=O)oc12)CCCC3	-2
CCn1c(SC)nc2cc(S(=O)(=O)N3CCCCC3)ccc21	-9
Cc1cccc(NC(=O)CNC(=O)Cc2ccc3c(c2)OCCO3)c1C	3
